PINK1 modulator = PINK1 expression modulation | PINK1 immunofluorescence, high-content cytometry, 24 h | Potency, µM (doses to about 76.6 µM), inactives show at the top dose activation (PINK1 increase), usual class: activators | 410,000 tested, 0.2% active | AID 624263; active = well fitted activation curve with a large enough effect; inconclusive = small, poorly fitted or top-dose-only effect; inactive = flat fitted curve, though single readings scatter; cell line not stated here;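 also: % of control where 0% means no effect; nearly all actives have a fitted effect of over 65% in size; a mitochondrial uncoupler was the plate control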
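Stable cell line treated 24 h with compounds at 5 concentrations (CCCP controls), then fixed and immunostained for PINK1 plus nuclear and cell stains; PINK1 immunofluorescence quantified by laser-scanning microplate cytometry.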
ClpP mod = qHTS Assay for Activators of ClpP | purified B. subtilis ClpP, FRET peptide cleavage, 20 min | 340,000 tested, 1.9% active | AID 651965, 2013 | Potency, µM (titrated, usually from 57.5 µM), without a hit: at the highest dose activity change, negative = active; active = well fitted falling curve with a large enough effect; inconclusive = small, poorly fitted or top-dose-only effect; inactive = no such curve, though single readings can be large or run the other way; also: the source files actives as falling curves though it sought activators and does not explain the sign; nearly all actives have a fitted effect of over 65% in size; many hits overshoot -100%
Target sequence (P80244 whole entry, looked up): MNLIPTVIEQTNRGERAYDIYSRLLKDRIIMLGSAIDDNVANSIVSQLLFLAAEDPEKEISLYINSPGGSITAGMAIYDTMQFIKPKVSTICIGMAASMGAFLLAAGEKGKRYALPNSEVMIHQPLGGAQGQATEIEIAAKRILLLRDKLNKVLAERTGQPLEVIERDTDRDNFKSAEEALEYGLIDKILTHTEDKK
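ClpP 10 microg/mL final, pH 8 Tris/KCl buffer with BSA, glycerol, Tween-20; compound pinned in; FRET-FV substrate; RT 20 min; Ex320/Em430; ΔFRET vs ADEP 5.8 microM, DMSO, no enzyme.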
An asterisk follows results filed as active; ? = inconclusive. Potency is read from the fitted curve at half-maximal effect.

SMILES	PINK1 modulator	ClpP mod
CCOC(=O)N1CCc2c(sc3c2C(=O)NC(c2cc(OC)c(O)c(OC)c2)N3)C1 (stereo not given)	-0.3%	1.0%
Cc1cccc(-n2nnc(-c3nc(-c4ccccc4)no3)c2N)c1C	2.6%	-7.8%
O=c1[nH]/c(=C/c2ccc3c(c2)OCO3)c(=O)[nH]/c1=C\c1ccc2c(c1)OCO2	-0.1%	0.5%
Cc1cccc(N2CCN(S(=O)(=O)c3ccc4oc(=O)c5ncn(C)c5c4c3)CC2C)c1 (stereo not given)	7.1%	-3.7%
COC(=O)c1scc(-c2ccccc2)c1S(=O)(=O)Nc1ccc(C)c(Cl)c1	5.5%	0.5%
CCOC(=O)c1ccc(N2C(=O)c3[nH]nc(-c4ccc(OC)cc4)c3C2c2ccc(C)cc2)cc1 (stereo not given)	9.4%	-12.5%
CCOc1ccc(CNC(=O)C2CCN(S(=O)(=O)c3cn(C)cn3)CC2)cc1OC	-0.6%	-1.3%
CCC(C(=O)NCc1ccc(OC)c(OC)c1)n1nc(C)c2c(C)n(-c3ccc(C)cc3)nc2c1=O (stereo not given)	0.8%	0.4%
O=C(Cn1cc(SCc2c(F)cccc2Cl)c2ccccc21)N1CCCCC1	2.5%	1.7%
Cc1cc(C)c2c(CC(=O)Nc3ccc(S(=O)(=O)N4CCCCC4)cc3)coc2c1	1.2%	0.2%
Cc1oc2ncnc(N3CCOCC3)c2c1C(=O)NCc1ccccc1	6.5%	-0.7%
COc1ccc(CN(C(=O)Nc2cc(C)ccc2C)C2CCN(C(C)=O)CC2)cc1	-0.7%	-1.3%
Cc1cc(C)cc(-n2ccn(CC(=O)Nc3cc(C)ccc3C)c(=O)c2=O)c1	-0.3%	-0.6%
CCOC(=O)c1cc(-c2ccccc2)n(CC(=O)N(C)c2ccc(OC)cc2)c1C	2.7%	-0.1%
CCCSc1nnc2n(-c3cccc(C)c3)c(=O)c3c4c(sc3n12)CCCC4	5.2%	3.1%
CCOC(=O)c1c(S(=O)(=O)N2CCC(C(=O)NCc3ccccc3Cl)CC2)c(C)n(C)c1C	0.5%	1.6%
COc1ccc(C2C=C(c3ccccc3)Nc3nc(NC(=O)/C=C/c4ccccc4)nn32)cc1 (stereo not given)	1.5%	-13.1%
CCOC(=O)c1c(C)[nH]c(C)c1S(=O)(=O)N1CCCC(C(=O)Nc2ccc(OC)c(Cl)c2)C1 (stereo not given)	0.5%	0.5%
Cc1cc(-n2c(C)nc3ccccc3c2=O)ccc1NC(=O)c1cccc([N+](=O)[O-])c1	-0.3%	1.0%
Cc1cccc(-c2nc3c(cnn3-c3ccccc3)c(=O)n2-c2ccc(Cl)cc2)c1	-0.3%	?
COc1ccc(CCNC(=O)CCc2c(C)nc3c(c(C)nn3-c3ccccc3)c2C)c(OC)c1	-0.1%	?
Cc1cccc(NC(=O)CSc2nc3ccccc3nc2N2CCOCC2)c1C	0.5%	2.2%
CCc1ccc(C(=O)c2cn(CC(=O)Nc3ccc(F)cc3)c3ccc(OC)cc3c2=O)cc1	1.2%	1.1%
COc1ccc(N2CCN(CCCNC(=O)c3cnn(-c4ccc(F)cc4)c3-n3cccc3)CC2)cc1	-1.4%	-7.5%
COc1ccc(N2CCN(C(=O)C3CCN(S(=O)(=O)c4cccc5nonc45)CC3)CC2)cc1	2.1%	-2.6%

3 compounds from above, sorted by the number in PINK1 modulator, falling:
SMILES | PINK1 modulator
O=c1[nH]/c(=C/c2ccc3c(c2)OCO3)c(=O)[nH]/c1=C\c1ccc2c(c1)OCO2 | -0.1%
Cc1cccc(-c2nc3c(cnn3-c3ccccc3)c(=O)n2-c2ccc(Cl)cc2)c1 | -0.3%
CCOc1ccc(CNC(=O)C2CCN(S(=O)(=O)c3cn(C)cn3)CC2)cc1OC | -0.6%

Back to the main list, repeating the 6 entries before the break.
SMILES	PINK1 modulator	ClpP mod
Cc1cccc(-c2nc3c(cnn3-c3ccccc3)c(=O)n2-c2ccc(Cl)cc2)c1	-0.3%	?
COc1ccc(CCNC(=O)CCc2c(C)nc3c(c(C)nn3-c3ccccc3)c2C)c(OC)c1	-0.1%	?
Cc1cccc(NC(=O)CSc2nc3ccccc3nc2N2CCOCC2)c1C	0.5%	2.2%
CCc1ccc(C(=O)c2cn(CC(=O)Nc3ccc(F)cc3)c3ccc(OC)cc3c2=O)cc1	1.2%	1.1%
COc1ccc(N2CCN(CCCNC(=O)c3cnn(-c4ccc(F)cc4)c3-n3cccc3)CC2)cc1	-1.4%	-7.5%
COc1ccc(N2CCN(C(=O)C3CCN(S(=O)(=O)c4cccc5nonc45)CC3)CC2)cc1	2.1%	-2.6%
Cc1ccc(CNC(=O)CCc2nnc3n(C)c(=O)c4sccc4n23)cc1	1.4%	-3.4%
COc1ccccc1Cn1c(C2CC(=O)N(c3ccccc3OC)C2)nc2ccccc21 (stereo not given)	-1.1%	-6.2%
CCCc1c(-c2ccc(F)cc2)ncn1CCc1ccccc1OC	3.9%	1.7%
CC(=O)N1CCc2cc(CNS(=O)(=O)c3ccc(Cl)s3)ccc21	0.7%	0.4%
Cc1ccc(NC(=O)CN(C)S(=O)(=O)c2ccc3nc(C)sc3c2)c(C)c1	0.8%	0.9%
O=S(=O)(c1cccc(C(F)(F)F)c1)N1CCN(c2nc(-c3cccs3)nc3ccccc23)CC1	-0.7%	-5.7%
Cc1cccc(OCC(=O)NCC2(N3CCN(C)CC3)CCCCC2)c1	-0.3%	1.8%
CCCCCCCCN(CCCCCCCC)c1ccc(/C=C/c2ccnc3ccccc23)cc1	1.0%	2.5%
COc1ccc(CCNC(=O)CCc2cn(Cc3ccc(C)cc3)c3ccccc23)c(OC)c1OC	-0.2%	?
O=C(CSc1nnc(-c2ccc(Cl)cc2)o1)N1CCc2ccccc21	0.1%	-1.4%
CCc1cccc(NC(=O)c2cc3c(=O)[nH]c4ccccc4c3n2C)c1	8.2%	4.2%
CCSc1oc(-c2cccs2)nc1S(=O)(=O)c1ccc(Br)cc1	0.5%	?
COc1ccccc1CNC(=O)CCn1c(=O)c2ccccc2n(CC(=O)Nc2cc(Cl)ccc2C)c1=O	0.6%	3.8%
Cc1ccc(S(=O)(=O)c2nnn3c2nc(NC(C)C)c2sccc23)cc1	1.0%	-22.6%
COc1ccc(CCNC(=O)Cn2c(=O)c3cccn3c3ccc(F)cc32)c(OC)c1	-0.1%	-19.1%
CCOC(=O)c1ccc(NC(=O)C2CCN(S(=O)(=O)c3ccc4c(c3)CCCC(=O)N4)CC2)cc1	0.0%	-2.5%
CC(=O)c1ccc(NC(=O)c2cc(-c3ccc4c(c3)OCO4)on2)cc1	-0.9%	-2.3%
Cc1ccc(C(=O)NCc2ccc(N(C)C)cc2)cc1NC(=O)c1nsc2ccccc12	0.3%	-3.9%
O=C(NCC(c1cccs1)S(=O)(=O)c1cccs1)c1cccc(F)c1 (stereo not given)	0.4%	0.4%
CCOC(=O)Cn1c(=O)cc(C(F)(F)C(F)(F)F)c2c(C)nn(CC)c21	0.7%	-24.4%
COc1cc(OC)c(NC(=O)Cc2ccc(-n3c(C)nc4cccnc43)cc2)cc1Cl	-0.9%	-4.4%
COC(=O)c1c(-c2cccs2)csc1NC(=O)COc1ccc(C(C)(C)C)cc1	0.8%	-16.0%
CC(C)Cn1c(=O)c2ccccc2n2c(CCC(=O)Nc3ccc(F)cc3)nnc12	1.2%	6.3%
CCc1ccc(N(CC)C(=O)Cn2cnc3sc(C)c(S(=O)(=O)N4CCN(c5ncccn5)CC4)c3c2=O)cc1	-0.6%	-1.4%
O=C(NCCc1csc(-c2ccc(F)cc2)n1)c1ccco1	0.8%	-1.5%

Following part.
SMILES	PINK1 modulator	ClpP mod
COc1ccc(C(=O)N2CCN(C(=O)COc3ccc(C)cc3)CC2)cc1OC	0.5%	1.0%
O=c1[nH]cc(F)c(=O)n1C1OC(CO)C(O)C1O (stereo not given)	-0.5%	0.5%
Cc1ccc(O)c(NC(=O)CCSc2nc(-c3ccco3)cc(C(F)(F)F)n2)c1	23.4%	13.4%
O=C(Nc1cc(Cl)ccc1Cl)c1cc(S(=O)(=O)N2CCc3ccccc3C2)ccc1F	3.9%	-5.8%
CCOC(=O)CSc1nc2c([nH]c3ccccc32)c(=O)n1-c1ccc(OC)cc1	0.9%	0.1%
COc1ccc(-c2nsc(NC(=O)C(C)Oc3ccc(Cl)c(C)c3)n2)cc1 (stereo not given)	?	0.6%
CC(C)(C)n1nnnc1C(c1ccccc1)N1CCN(C(=O)C2CCCO2)CC1 (stereo not given)	1.3%	2.1%
Cc1ccc2occ(CC(=O)N(Cc3ccc(C(C)C)cc3)C3CCS(=O)(=O)C3)c2c1 (stereo not given)	-0.2%	0.9%
O=c1c(N2CCN(c3cccc(C(F)(F)F)c3)CC2)csc2ccccc12	?	-10.6%
O=C(Nc1ccc2nc3n(c(=O)c2c1)CCCCC3)C(=O)Nc1ccccc1F	8.5%	?
CCC(C)NC(=O)Cn1c(=O)n(Cc2ccc(C(=O)NCCCOC)cc2)c(=O)c2ccccc21 (stereo not given)	0.2%	-15.6%
COc1ccc(CCNC(=O)c2c(C)oc3nc(C)nc(N4CCOCC4)c23)cc1OC	-8.2%	-0.5%
O=C(CN1C(=O)CCc2cc(S(=O)(=O)N3CCOCC3)ccc21)NCc1ccccc1Cl	0.9%	0.7%
COc1ccc(C(=O)Nc2ccc3c(c2)CCCN3S(=O)(=O)c2ccc(C)cc2)c(OC)c1	0.4%	-6.0%
Cc1cccc(N2CCN(CCCNC(=O)c3nnc(Cc4c(F)cccc4Cl)o3)CC2C)c1 (stereo not given)	-0.8%	-2.0%
CCC1=Nc2cc(C(=O)NCCCOC(C)C)ccc2Sc2ccc(C)cc21	1.9%	0.0%
COc1ccc(C2=NN(CC(=O)NCCc3ccc(OC)c(OC)c3)C(=O)CC2)cc1	0.0%	1.6%
CC(=O)Nc1nonc1-c1nnc(SCC(=O)Nc2ccc(C)cc2)n1-c1ccccc1	-0.3%	0.5%
CCCN(C(=O)c1coc(=O)c2ccccc12)c1ccccc1C	2.1%	1.5%
CCCCNC(=O)C1c2ccccc2OCC(=O)N1Cc1ccco1 (stereo not given)	-0.3%	-2.2%
Cc1ccc(NC(=O)NCc2ccc3c(c2)CCN3C(=O)c2ccccc2)c(Cl)c1	0.4%	-1.9%
CCCC(=O)N(c1ccc2oc(C)c(C(C)=O)c2c1)S(=O)(=O)c1ccc(C)cc1	-0.5%	-2.9%
Cc1cc(SCC(=O)NCc2ccccc2)nc(=O)[nH]1	-0.6%	-0.6%
O=C(COc1ccc(Cl)cc1)Nc1ccccc1OCc1cc(=O)n2ccccc2n1	?	3.7%
O=C(CCSCc1ccccc1F)N1CCN(c2ccc(F)cc2)CC1	1.9%	-0.8%

Remaining list, next part
SMILES	PINK1 modulator	ClpP mod
CCc1ccc(NC(=O)Cn2c(=O)n(Cc3ccccc3)c(=O)c3oc4ccccc4c32)cc1	0.6%	-2.0%
Cc1nnc2c(N3CCN(c4ccc(F)cc4)CC3)nc3ccc(C(=O)c4ccccc4)cc3n12	2.6%	1.9%
Cc1ccccc1CNC(=O)Nc1ccc2c(c1)N(C)C(=O)c1ccccc1S2	20.6%	0.0%
COc1cc(C2CC(=O)c3c([nH]c(C(=O)OC4CCCC4)c3C)C2)cc(OC)c1OC (stereo not given)	2.0%	-3.4%
Cc1ccc(C)c(N2CCN(CCCNC(=O)c3ccc4nc(C(C)C)oc4c3)CC2)c1	2.1%	1.3%
Cc1ccccc1NC(=O)CSc1nc2c(oc3ccccc32)c(=O)n1Cc1ccco1	3.7%	-5.6%
Nc1ccccc1N	0.5%	-1.7%
COc1ccc(N(C(=O)c2cccc(C)c2)S(=O)(=O)c2ccc3c(c2)n(C)c(=O)n3C)cc1	-1.7%	0.1%
CC(C)CCOc1ccc(C(=O)NCC2OCCc3ccccc32)cc1 (stereo not given)	-0.6%	-2.2%
O=C(CSCc1ccccc1Cl)N1CCN(c2ccc(F)cc2)CC1	0.1%	0.6%
CCOC(=O)CSc1nc2ccc(NC(=O)c3ccc(Cl)cc3)cc2s1	0.1%	46.6%
CCOC(=O)[C@]12CCCC=C1N(Cc1ccc3c(c1)OCO3)C(=O)[C@H](CC(=O)N1CCC(c3ccccc3)CC1)C2	-0.3%	-0.1%
N#Cc1ccc(S(=O)(=O)N2CCN(c3nc(-c4ccccc4)nc4ccccc34)CC2)cc1	0.7%	4.1%
COC(=O)c1ccccc1NC(=O)Cn1c(=O)n(-c2ccc(Cl)cc2)c(=O)c2c(C)c(C)sc21	-0.6%	0.2%
CCc1cccc(NC(=O)c2cc3c(=O)oc4ccc(C)cc4c3s2)c1	2.6%	-25.9%
CCOC(=O)c1c(C)oc2ncnc(Nc3ccc(OC)c(OC)c3)c12	2.5%	8.9%
Cc1nc(-c2ccc(C)c(N3CCN(C(=O)Nc4cccc(Cl)c4C)CC3)c2)no1	1.5%	-1.4%
O=CC(=O)c1ccc(Br)cc1	1.5%	0.9%
Cc1ccc2nc(N3CCN(c4ccc(F)cc4)CC3)c3nnnn3c2c1	2.4%	-13.4%
Cc1ccc(Cl)cc1N(C)C(=O)Cn1nc(Cc2cccnc2)c2ccccc2c1=O	-0.3%	-7.5%
Cc1nc(-c2cccc(F)c2)sc1CCNC(=O)Cc1ccc(F)cc1	0.0%	3.9%
CCCOc1ccc(-c2nonc2NC(=O)c2ccco2)cc1OCCC	3.6%	-13.8%

Assay outcomes from PubChem BioAssay.

Not all compounds are listed; rates above refer to the full screens.
